Vaccinia stage – blocks a specific stage of Vaccinia orthopoxvirus infection; Vaccinia-infected cells, mCherry/Venus stage reporter fluorescence; stronger effect = lower value; some inactives read as strong as hits; activity change (mCherry), % (test concentration not listed); 0.01% of 89,000 active; AID 1053133;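 active = mCherry past -33% and 40 or more points under the early reporter, replicates agreeing; inconclusive = past -33% without that gap or agreement; tested in A549 cells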;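 note: scaled between vehicle wells and reference inhibitor wells; 23 nL library stock went into each well; one replicate is shown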
Vaccinia stage Venus – further read-out of Vaccinia stage, marked with its call; activity change (Venus), %; measured here: Venus reporter, other viral stage;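 negative = less Venus signal; first of two replicates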
* marks the source's active call; other numbers are inactive results; ? = inconclusive; · = not tested or not shown. Not all compounds are listed. The share of hits here may be higher or lower than overall.

Results follow in this order: Vaccinia stage | Vaccinia stage Venus
1) CN(C)C(=O)[C@@]1(Cc2ccccc2N=[N+]=[N-])N=C(c2ccc(OCCCO)cc2)O[C@H]1c1ccccc1N=[N+]=[N-]
    ? | ·
2) CCCNC(=O)C[C@@H]1C[C@H]2c3cc(NC(=O)NC4CCCCC4)ccc3O[C@H]2[C@H](CO)O1
    9 | 6
3) O=C(Cc1ccccn1)N1[C@H](CO)[C@@H]2c3ccccc3NC[C@@H]21
    11 | 24
4) CCCNC(=O)N[C@H]1CC[C@@H](CCn2cc(C3CC3)nn2)O[C@H]1CO
    9 | 13
5) N#C[C@@H]1[C@H](c2ccc(-c3cccnc3)cc2)[C@H](CO)N1C(=O)Nc1ccc(F)cc1
    -30 | -24
6) C/C=C/c1ccc([C@@H]2[C@@H](CO)N3CCCCN(C(=O)Cc4cccnc4)C[C@@H]23)cc1
    17 | 13
7) O=C(C1CCC1)N1CCCCN2[C@H](C1)[C@H](c1ccc(-c3cccc(F)c3)cc1)[C@@H]2CO
    -18 | -20
8) CO[C@@H]1CN(C)C(=O)c2cc(NS(=O)(=O)c3cccc(F)c3)ccc2OC[C@@H](C)N(C(=O)Cc2cccnc2)C[C@H]1C
    11 | 5
9) C[C@@H]1CN([C@H](C)CO)C(=O)c2cc(/C=C/c3ccccc3)cnc2O[C@H]1CN(C)Cc1cccc(C(=O)O)c1
    17 | 7
10) CO[C@H]1CN(C)C(=O)c2cc(NC(=O)C3CC3)ccc2OC[C@@H](C)N(Cc2ccc(F)cc2)C[C@@H]1C
    -23 | -12
11) C[C@@H]1CN([C@H](C)CO)C(=O)c2cccc(NC(=O)c3ccncc3)c2O[C@H]1CN(C)Cc1ccc(C(=O)Nc2ccccc2N)cc1
    5 | 9
12) C[C@H]1CN([C@@H](C)CO)C(=O)c2cc(NS(=O)(=O)c3ccccc3)ccc2O[C@H]1CN(C)Cc1ccc(C(=O)Nc2ccccc2N)cc1
    3 | 1
13) C[C@H](CO)N1C[C@H](C)[C@H](CN(C)Cc2ccccc2)Oc2c(NC(=O)Nc3ccccc3)cccc2C1=O
    -31 | -14
14) O=C(C[C@H]1C[C@H]2c3cc(NC(=O)C4CCOCC4)ccc3O[C@H]2[C@@H](CO)O1)NCc1cccc(F)c1
    14 | 9
15) C[C@H](CO)N1C[C@H](C)[C@@H](CN(C)Cc2ccc(C(=O)Nc3ccccc3N)cc2)Oc2c(NC(=O)Nc3ccccc3)cccc2C1=O
    3 | 5
16) Cc1noc(C)c1NC(=O)N[C@H]1C=C[C@H](CC(=O)Nc2ccccc2)O[C@@H]1CO
    -5 | 1
17) C[C@H]1CN([C@@H](C)CO)C(=O)c2cccc(N(C)C)c2O[C@@H]1CN(C)Cc1ccc(Cl)c(Cl)c1
    -10 | -7
18) O=C(C[C@H]1C[C@H]2c3cc(NC(=O)C4CCC4)ccc3O[C@H]2[C@@H](CO)O1)NCc1cccc(F)c1
    3 | 9
19) CN1C(=O)c2cc(NC(=O)C3CCCC3)ccc2OC[C@H]2O[C@H](CC(=O)NCCc3ccncc3)CC[C@@H]21
    10 | 5
20) COc1ccc(-c2cnc3c(c2)C(=O)N([C@@H](C)CO)C[C@@H](C)[C@H](CN(C)C(=O)C2CCCCC2)O3)cc1
    -1 | -12
21) C[C@@H]1CN([C@@H](C)CO)C(=O)c2cc(-c3cccnc3)cnc2O[C@@H]1CN(C)C(=O)Nc1ccc(F)cc1
    20 | -4
22) O=C(CC1CC1)N1CC2(C1)[C@H](c1ccccc1)[C@@H](CO)N2C(=O)c1cccnc1
    -1 | 0
23) CN1c2ccc(-c3ccc(C#N)cc3)cc2[C@@H]2[C@@H](CCN2C(=O)NC2CCCCC2)[C@H]1CO
    ? | ·
24) C[C@@H]1CN([C@@H](C)CO)C(=O)c2cc(NS(=O)(=O)c3ccccc3)ccc2O[C@@H](C)CCCCO[C@@H]1CN(C)C(=O)Nc1ccc(C(F)(F)F)cc1
    -13 | -10
25) C[C@@H]1CCCCO[C@@H](CN(C)C(=O)Nc2ccc3c(c2)OCO3)[C@@H](C)CN([C@@H](C)CO)C(=O)c2cc(NC(=O)Nc3ccccc3)ccc2O1
    1 | -3
26) COc1ccc(S(=O)(=O)Nc2ccc3c(c2)C(=O)N([C@H](C)CO)C[C@@H](C)[C@H](CN(C)C(=O)Nc2ccc(C(F)(F)F)cc2)O3)cc1
    7 | 0
27) C[C@H](CO)N1C[C@H](C)[C@@H](CN(C)S(C)(=O)=O)OCc2ccccc2-c2c(n(C)c3ccccc23)C1=O
    7 | -7
28) COc1ccc(CN(C)C[C@@H]2Oc3ccc(NS(C)(=O)=O)cc3C(=O)N([C@@H](C)CO)C[C@@H]2C)cc1
    19 | 7
29) CC(C)(C)[S@@](=O)N1Cc2cc(C(=O)N3CCc4ccccc4C3)nc(-c3cccc(-c4ccncc4)c3)c2[C@H]1CCO
    ? | ·
30) C[C@H]1CN([C@@H](C)CO)C(=O)c2cc(NC(=O)Cc3ccccc3)ccc2O[C@@H]1CN(C)C(=O)Nc1ccc(C(F)(F)F)cc1
    4 | 1
31) CN1CCN(C(=O)C[C@@H]2C[C@H]3c4cc(NC(=O)C5CCC5)ccc4O[C@H]3[C@@H](CO)O2)CC1
    7 | 9
32) CCCNC(=O)N(C)C[C@H]1Oc2ncc(C#C[C@@H](C)O)cc2C(=O)N([C@@H](C)CO)C[C@H]1C
    11 | 10
33) O=C1CN(Cc2ccc(F)cc2)C[C@H]2[C@H](c3ccc(Br)cc3)[C@H](CO)N12
    -15 | -8
34) C[C@@H]1CCCCO[C@@H](CN(C)C)[C@H](C)CN([C@H](C)CO)C(=O)c2cc(NS(=O)(=O)c3ccc(F)cc3)ccc2O1
    -5 | -2
35) O=C(O)C[C@@H]1C[C@@H]2c3cc(NC(=O)CC4CC4)ccc3O[C@@H]2[C@@H](CO)O1
    0 | 6
36) C[C@@H]1CN([C@H](C)CO)C(=O)c2cccc(NC(=O)C3CC3)c2O[C@@H]1CN(C)Cc1ccc(Cl)c(Cl)c1
    -16 | -1
37) COCCNC(=O)C[C@H]1C[C@@H]2c3cc(NS(C)(=O)=O)ccc3O[C@@H]2[C@H](CO)O1
    1 | -8
38) COc1cccc(C#Cc2cnc3c(c2)C(=O)N([C@H](C)CO)C[C@H](C)[C@H](CN(C)C)O3)c1
    -12 | -5
39) O=C(O)C[C@@H]1C[C@H]2c3cc(NC(=O)C4CCOCC4)ccc3O[C@H]2[C@@H](CO)O1
    29 | 29
40) CS(=O)(=O)N1CC(=O)N2[C@H](CO)[C@@H](c3ccc(C#Cc4ccccc4)cc3)[C@@H]2C1
    -28 | -25
41) O=C(C[C@H]1CC[C@H]2[C@@H](COC[C@@H](O)CN2Cc2cc(F)cc(F)c2)O1)NC1CCC1
    0 | 1
42) COCC(=O)Nc1ccc2c(c1)C(=O)N(C)[C@@H]1CC[C@H](CC(=O)NC3Cc4ccccc4C3)O[C@H]1CO2
    7 | 12
43) CC(C)NC(=O)N(C)C[C@H]1Oc2c(NC(=O)Nc3cccc4ccccc34)cccc2C(=O)N([C@@H](C)CO)C[C@@H]1C
    -1 | -1
44) Cc1ccccc1-c1ccc([C@H]2[C@H](CO)N3C(=O)CN(C(=O)Cc4ccccn4)C[C@@H]23)cc1
    13 | -17
45) Cc1noc(C)c1NC(=O)Nc1ccc2c(c1)C(=O)N([C@@H](C)CO)C[C@@H](C)[C@H](CN(C)CC1CCCCC1)O2
    -7 | -14
46) O=C1CN(S(=O)(=O)Cc2ccccc2)C[C@@H]2[C@H](c3ccc(C#Cc4cccc(F)c4)cc3)[C@H](CO)N12
    ? | ·
47) Cc1ccc(S(=O)(=O)Nc2ccc3c(c2)CC(=O)N([C@H](C)CO)C[C@@H](C)[C@H](CN(C)Cc2ccc4c(c2)OCO4)O3)cc1
    7 | 9
48) COc1ccc(CN(C)C[C@H]2OCCCC[C@@H](C)Oc3ccc(N(C)C)cc3C(=O)N([C@H](C)CO)C[C@@H]2C)cc1
    -11 | -11
49) CCC(=O)Nc1ccc2c(c1)OC[C@H](C)N(CCC(F)(F)F)C[C@H](C)[C@H](OC)CN(C)C2=O
    0 | -2
50) C[C@H](NC(=O)[C@@H]1[C@@H](CO)[C@@H]2Cn3c(cccc3=O)[C@@H]2N1Cc1ccncc1)c1ccccc1
    -2 | 7
51) C[C@H](CO)N1C[C@H](C)[C@H](CN(C)Cc2ccccn2)Oc2ncc(C#CCC3CCCC3)cc2C1=O
    -13 | -12
52) COc1ccc(-c2ccc3c(c2)O[C@@H](CN(C)C(=O)Nc2ccccc2F)[C@@H](C)CN([C@H](C)CO)S3(=O)=O)cc1
    ? | ·
53) CCCC(=O)Nc1ccc2c(c1)OC[C@H](C)N(C(=O)c1cnccn1)C[C@@H](C)[C@@H](OC)CN(C)C2=O
    3 | 1
54) O=C(NC1CCCCC1)N1CC(=O)N2[C@H](CO)[C@@H](c3ccc(-c4cccc(F)c4)cc3)[C@H]2C1
    ? | ·
55) O=C(Nc1ccc(F)cc1)N1CC(=O)N2[C@H](CO)[C@@H](c3ccc(-c4ccc(F)cc4)cc3)[C@H]2C1
    ? | ·
56) Cn1cnc(S(=O)(=O)N2C[C@H](O)COC[C@H]3O[C@@H](CC(=O)NC4CCC4)CC[C@@H]32)c1
    24 | 16
57) CCS(=O)(=O)N[C@@H]1C=C[C@H](CC(=O)Nc2ccc(-c3ccccc3)cc2)O[C@@H]1CO
    -2 | 9
58) C[C@H]1CN([C@@H](C)CO)C(=O)c2cccc(NS(=O)(=O)c3ccc(F)cc3)c2O[C@H]1CN(C)Cc1ccc(Cl)c(Cl)c1
    ? | ·
59) COc1ccccc1CNC(=O)C[C@H]1CC[C@H]2[C@@H](COC[C@H](O)CN2C(=O)Nc2ccc(F)cc2)O1
    -11 | -6
60) C[C@H]1CN([C@@H](C)CO)C(=O)c2cc(NS(=O)(=O)c3ccccc3)ccc2O[C@H]1CN(C)Cc1ccc2c(c1)OCO2
    2 | 0

One compound at a time, from the list above. Order of values: Vaccinia stage | Vaccinia stage Venus
`C[C@H]1CN([C@@H](C)CO)C(=O)c2cccc(NS(=O)(=O)c3ccc(F)cc3)c2O[C@H]1CN(C)Cc1ccc(Cl)c(Cl)c1` is listed with ? | ·
`C[C@H]1CN([C@@H](C)CO)C(=O)c2cc(NS(=O)(=O)c3ccccc3)ccc2O[C@H]1CN(C)Cc1ccc2c(c1)OCO2` is listed with 2 | 0
`O=C(NC1CCCCC1)N1CC(=O)N2[C@H](CO)[C@@H](c3ccc(-c4cccc(F)c4)cc3)[C@H]2C1` is listed with ? | ·

Carrying on.
Results follow in this order: Vaccinia stage | Vaccinia stage Venus
61) Cc1ccc(S(=O)(=O)N[C@@H]2C=C[C@@H](CC(=O)NCc3ccc(Cl)c(Cl)c3)O[C@H]2CO)cc1
    ? | ·
62) C[C@H]1CN([C@@H](C)CO)C(=O)Cc2cc(N(C)C)ccc2O[C@@H]1CN(C)C(=O)Nc1ccc(F)cc1
    4 | -1
63) CN(C)C(=O)c1cc2c(c(-c3cccc(-c4ccccc4)c3)n1)[C@@H](CCO)N([S@](=O)C(C)(C)C)C2
    -5 | 16
64) O=C(Cc1cccnc1)N1CC2(C1)[C@@H](c1ccccc1)[C@@H](CO)N2C(=O)C1CCOCC1
    8 | 9
65) CO[C@@H](CN(C)S(=O)(=O)c1ccc(F)cc1)[C@@H](C)CN([C@H](C)CO)S(=O)(=O)c1cccc(Cl)c1
    -16 | -8
66) C[C@@H]1CN([C@H](C)CO)C(=O)c2cc(NC(=O)c3ccccc3)ccc2O[C@@H](C)CCCCO[C@H]1CN(C)S(=O)(=O)c1ccc(F)cc1
    -26 | -16
67) Cc1ccc(S(=O)(=O)N(C)C[C@H]2Oc3ncc(-c4ccncc4)cc3C(=O)N([C@H](C)CO)C[C@@H]2C)cc1
    -17 | -20
68) Cc1cc(C(=O)Nc2cccc3c2O[C@@H](CN(C)Cc2ccc(C(=O)O)cc2)[C@@H](C)CN([C@H](C)CO)C3=O)n(C)n1
    7 | 3
69) CO[C@@H]1CN(C)C(=O)c2cc(NC(C)=O)ccc2OC[C@H](C)N(Cc2ccc(F)cc2)C[C@H]1C
    -7 | -8
70) CO[C@H]1CN(C)C(=O)c2ccc(NC(C)=O)cc2OC[C@@H](C)N(Cc2cc(F)ccc2F)C[C@@H]1C
    -23 | -21
71) CCCC#Cc1cnc2c(c1)C(=O)N([C@H](C)CO)C[C@H](C)[C@H](CN(C)Cc1ccccc1)O2
    -15 | -8
72) C[C@H](CO)N1C[C@H](C)[C@@H](CN(C)S(=O)(=O)c2cn(C)cn2)OCCCC[C@H](C)Oc2ccc(NC(=O)C3CCCCC3)cc2C1=O
    22 | 3
73) COc1ccc(NC(=O)Nc2ccc3c(c2)C(=O)N([C@@H](C)CO)C[C@@H](C)[C@@H](CN(C)Cc2ccc(C(F)(F)F)cc2)OCCCC[C@@H](C)O3)cc1
    ? | ·
74) C[C@@H]1CN([C@H](C)CO)C(=O)c2cc(NC(=O)c3ccncc3)ccc2O[C@H]1CN(C)Cc1ccc(C(F)(F)F)cc1
    3 | -2
75) Cc1noc(C)c1S(=O)(=O)N(C)C[C@@H]1Oc2ccc(NS(=O)(=O)c3cccs3)cc2CC(=O)N([C@H](C)CO)C[C@H]1C
    7 | 4
76) CCS(=O)(=O)Nc1ccc2c(c1)C(=O)N(C)C[C@H](OC)[C@@H](C)CN(C(=O)c1ccc3c(c1)OCO3)[C@H](C)CO2
    11 | 7

Some of the entries so far, in transposed form.
[71] CCCC#Cc1cnc2c(c1)C(=O)N([C@H](C)CO)C[C@H](C)[C@H](CN(C)Cc1ccccc1)O2
[75] Cc1noc(C)c1S(=O)(=O)N(C)C[C@@H]1Oc2ccc(NS(=O)(=O)c3cccs3)cc2CC(=O)N([C@H](C)CO)C[C@H]1C

Compound | 71 | 75
Vaccinia stage | -15 | 7
Vaccinia stage Venus | -8 | 4
